KCNQ2 pot = enhances the rat KCNQ2 potassium channel; O88943; CHO-K1 KCNQ2, FluxOR thallium flux fluorescence; stronger effect = higher value; B-score at 10 µM; hit rate 0.54% among 310,000;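 active = fluorescence ratio B-score at least 3 SD of library B-scores, with initial fluorescence B-score within 3 SD, cut at about 5.3 in these data; same plate scores as AID 2156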;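 also: B-score of peak minus minimum over baseline fluorescence ratio after K+ and Tl+ stimulus; positive B-score means potentiation of KCNQ2 with more thallium influx and brighter signal; only the inactives scoring about 0 or higher are listed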
Target sequence (O88943 whole entry, looked up): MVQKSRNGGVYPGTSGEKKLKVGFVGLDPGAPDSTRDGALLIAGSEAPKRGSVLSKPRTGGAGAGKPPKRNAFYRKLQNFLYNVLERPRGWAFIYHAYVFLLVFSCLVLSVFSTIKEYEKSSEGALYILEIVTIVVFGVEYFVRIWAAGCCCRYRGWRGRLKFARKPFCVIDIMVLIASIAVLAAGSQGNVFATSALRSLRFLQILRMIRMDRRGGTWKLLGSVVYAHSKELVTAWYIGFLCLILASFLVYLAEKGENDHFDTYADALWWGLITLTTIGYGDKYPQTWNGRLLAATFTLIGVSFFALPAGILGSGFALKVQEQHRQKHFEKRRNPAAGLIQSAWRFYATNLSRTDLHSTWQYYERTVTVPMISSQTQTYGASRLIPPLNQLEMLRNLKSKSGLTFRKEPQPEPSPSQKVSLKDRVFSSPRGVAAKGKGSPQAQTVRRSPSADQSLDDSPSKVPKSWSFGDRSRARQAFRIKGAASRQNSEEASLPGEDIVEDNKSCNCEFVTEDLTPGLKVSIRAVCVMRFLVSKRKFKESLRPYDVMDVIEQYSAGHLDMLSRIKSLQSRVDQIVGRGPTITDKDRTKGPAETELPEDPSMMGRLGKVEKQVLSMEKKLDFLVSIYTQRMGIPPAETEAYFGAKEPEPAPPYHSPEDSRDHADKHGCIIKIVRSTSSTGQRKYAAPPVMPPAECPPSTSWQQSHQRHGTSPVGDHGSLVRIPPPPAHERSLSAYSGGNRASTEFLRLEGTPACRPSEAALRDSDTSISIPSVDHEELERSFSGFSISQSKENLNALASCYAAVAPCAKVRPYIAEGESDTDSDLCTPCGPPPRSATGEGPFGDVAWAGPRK
KCNQ2 pot baseline = further read-out of KCNQ2 pot, marked with its call; B-score; compound at 10 µM; measured here: initial fluorescence intensity artifact check;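 brightness before thallium and not channel activity; 0 = typical well and far values either way flag optical interference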
The depositor's hits bear a star.

KCNQ2 pot | KCNQ2 pot baseline | Compound
2.07 | 0.17 | CCOC(=O)C1CCN(C(=O)COc2ccc3c(C)cc(=O)oc3c2)CC1
0.62 | -0.71 | COc1ccc(N2CCN(C(CNC(=O)C(C)C)c3ccc4c(c3)OCO4)CC2)cc1 (stereo not given)
0.51 | 0.37 | O=[N+]([O-])c1cc(-c2csc(NC(CO)c3nc4ccccc4n3CCOCCO)n2)ccc1Cl (stereo not given)
0.05 | 1.21 | COc1ccc(C(=O)Nc2cc(C(=O)c3ccccc3)c(C)oc2=O)cc1
2.26 | -0.94 | O=C(NCC(=O)N1CC(O)CC1C(=O)N1CC(O)CC1C(=O)OCc1ccccc1)OCc1ccccc1 (stereo not given)
1.98 | -0.51 | COc1ccc(CNc2nc3c(c(=O)n(Cc4ccc(F)cc4)c(=O)n3C)n2C)cc1
0.35 | -1.88 | Cc1ccc(NCc2nnc(SCC(=O)Nc3cc(C)on3)n2C)cc1
0.15 | -0.99 | C/C(=C\c1cccc(Br)c1)C(=O)c1c(C)cc(C)[nH]c1=O
0.47 | -0.06 | CC(=O)c1ccc(N(C(=O)CNC(=O)c2cccs2)C(C(=O)NCC2CCCO2)c2ccccc2)cc1 (stereo not given)
4.7 | -1.21 | COc1ccc(NC(=O)CN2C(=O)c3ccccc3S2(=O)=O)cc1OC
1.36 | 0.04 | CC(=O)c1cccc(OCc2cc(C(=O)N(C)CCC3CCOCC3)no2)c1
0.34 | -0.93 | COC(=O)c1cc(S(=O)(=O)NCc2ccccc2)c[nH]1
1.55 | 0.13 | CC1CCc2cc(F)ccc2N1C(=O)C1(C)CC1(Cl)Cl (stereo not given)
0.25 | -0.01 | O=C(CCCn1c(=S)[nH]c2cc3c(cc2c1=O)OCO3)N1CCN(c2ccc(Cl)cc2)CC1
0.27 | 0.57 | COCCNC(=O)CSCc1cc(C)cc(C)c1
1.66 | -0.1 | O=C(c1ccc(S(=O)(=O)N2CCCC2)cc1)N1CCN(Cc2ccc3c(c2)OCO3)CC1
1.58 | -1.16 | COC(=O)c1cc(-c2ccccc2)sc1NC(=O)CN1C(=O)c2ccccc2C1=O
1.66 | 0.45 | Cc1ccc(Oc2ncc(-c3ccc(Cl)cc3)cn2)cc1
0.06 | -0.45 | Cn1c(SCC(=O)Nc2ccc(F)cc2)nc2c([nH]c3ccccc32)c1=O
1.46 | -0.07 | Cc1cc(C)n2c3c(c(C#N)c2n1)CCCC3
0.1 | 0.22 | O=[N+]([O-])c1ccc(/C=N/Nc2nc(N3CCCC3)nc(N3CCCC3)n2)o1
1.84 | -1.05 | Cc1cccc(NS(=O)(=O)c2nnc(NC(=O)C3CCCCC3)s2)c1
0.47 | -0.74 | COc1ccc(/C=N/Nc2ncc(-c3ccccc3)cn2)c(OC)c1
1.2 | -2.06 | CCc1ccc(N(C(=O)c2snc(C(N)=O)c2N)C(C(=O)NCC2CCCO2)c2cccs2)cc1 (stereo not given)
0.68 | 0.49 | Cn1cnc([N+](=O)[O-])c1Sc1nnc(-c2cccnc2)n1C
0.71 | -0.55 | Cc1ccccc1-c1nnc2c3ccccc3c(C)nn12
3.08 | -1.49 | N#Cc1c(C(F)(F)F)cc(-c2ccccc2)[nH]c1=O
0.35 | -0.8 | CCNc1nnc(CSc2nc3ccccc3s2)s1
1.58 | -0.25 | COc1ccc(CNC(=O)c2ccccc2NS(C)(=O)=O)cc1
0.15 | -0.92 | CC(=O)c1nn(-c2cccc(Br)c2)cc1C(=O)c1ccc2ccccc2c1

14 entries from above, arranged by SMILES length, falling:
KCNQ2 pot | KCNQ2 pot baseline | Compound
0.47 | -0.06 | CC(=O)c1ccc(N(C(=O)CNC(=O)c2cccs2)C(C(=O)NCC2CCCO2)c2ccccc2)cc1 (stereo not given)
2.26 | -0.94 | O=C(NCC(=O)N1CC(O)CC1C(=O)N1CC(O)CC1C(=O)OCc1ccccc1)OCc1ccccc1 (stereo not given)
0.25 | -0.01 | O=C(CCCn1c(=S)[nH]c2cc3c(cc2c1=O)OCO3)N1CCN(c2ccc(Cl)cc2)CC1
1.66 | -0.1 | O=C(c1ccc(S(=O)(=O)N2CCCC2)cc1)N1CCN(Cc2ccc3c(c2)OCO3)CC1
0.62 | -0.71 | COc1ccc(N2CCN(C(CNC(=O)C(C)C)c3ccc4c(c3)OCO4)CC2)cc1 (stereo not given)
0.06 | -0.45 | Cn1c(SCC(=O)Nc2ccc(F)cc2)nc2c([nH]c3ccccc32)c1=O
1.36 | 0.04 | CC(=O)c1cccc(OCc2cc(C(=O)N(C)CCC3CCOCC3)no2)c1
0.15 | -0.99 | C/C(=C\c1cccc(Br)c1)C(=O)c1c(C)cc(C)[nH]c1=O
0.47 | -0.74 | COc1ccc(/C=N/Nc2ncc(-c3ccccc3)cn2)c(OC)c1
1.58 | -0.25 | COc1ccc(CNC(=O)c2ccccc2NS(C)(=O)=O)cc1
1.66 | 0.45 | Cc1ccc(Oc2ncc(-c3ccc(Cl)cc3)cn2)cc1
0.71 | -0.55 | Cc1ccccc1-c1nnc2c3ccccc3c(C)nn12
1.46 | -0.07 | Cc1cc(C)n2c3c(c(C#N)c2n1)CCCC3
0.27 | 0.57 | COCCNC(=O)CSCc1cc(C)cc(C)c1

More results
KCNQ2 pot | KCNQ2 pot baseline | Compound
1.03 | 0.02 | CC1Oc2ccccc2N(CC(=O)Nc2ccc(F)cc2)C1=O (stereo not given)
0.77 | -0.25 | COc1cccc(-c2nc(-c3ccc(NC(=O)c4cccnc4)cc3)no2)c1
0.1 | -2.14 | Cc1cc(-c2nc(C)c(-c3nnc(SCC(=O)Nc4ccccc4)n3C)s2)no1
1.52 | -1.28 | Cc1cc(N)n(-c2ccc(S(=O)(=O)c3ccc(C(C)C)cc3)cc2)n1
0.8 | 0.01 | O=C1N=C(N2CCN(Cc3ccccc3)CC2)S/C1=C/c1cccs1
0.53 | 0.95 | O=C(NC1C2CC3CC(C2)CC1C3)c1ccc(N2CCNCC2)c([N+](=O)[O-])c1 (stereo not given)
1.79 | -2 | CCOc1ccc(CNC(=O)CCC(=O)N2Cc3ccccc3Oc3ncccc32)cc1
0.67 | -1.42 | CN(C)CCNC(=O)C(=O)NCC1CCCN1S(=O)(=O)c1cccs1 (stereo not given)
1.56 | -0.38 | Cc1cc(C)cc(OCC(=O)OCC(=O)NC2CCCCCCC2)c1
1.42 | 0.79 | COc1ccc(NC(=O)CSc2nnc(Cc3cccn3C)n2-c2ccc(F)cc2)cc1OC
0.22 | -2.5 | COc1ccc(-n2c(=O)cc(N3CCOCC3)[nH]c2=O)cc1
0.65 | 0.07 | CCCc1nn2c(=O)c(C(c3cccc(Cl)c3)c3c(O)nc4sc(CCC)nn4c3=O)c(O)nc2s1
0.2 | 1.56 | CCc1ccc2nc(SCC(=O)Nc3nnc(C)s3)c(C)cc2c1
0.97 | 0.67 | COC(=O)CCCCCCCC(=O)Nc1nnc(C(F)(F)F)s1
0.75 | 0.04 | COc1ccc(/C(C)=N/OCC(=O)Nc2nc3ccccc3s2)cc1OC
0.04 | 2.01 | CCOc1ccc(N2C(=O)NC(Cc3c[nH]c4ccccc34)C2=O)cc1 (stereo not given)
1.58 | -0.48 | CC1CCCN(C(=O)COC(=O)c2cc(-c3cccs3)nn2-c2ccccc2)C1 (stereo not given)
0.7 | -0.32 | COc1cc(NC(=O)CSc2nnc3c(C)cc4cc(C)cc(C)c4n23)c(C(=O)O)cc1OC
0.24 | -0.35 | CCOc1nc2cnccc2n(CC(=O)Nc2c(F)c(F)cc(F)c2F)c1=O
1.37 | -0.92 | CC(=O)N[C@H]1[C@H](OC2CCCCC2)O[C@H](COC(C)=O)[C@@H](OC(C)=O)[C@@H]1OC(C)=O
2.48 | -2.6 | Cn1c(=O)[nH]c(Nc2ccc(F)cc2)c([N+](=O)[O-])c1=O
1.23 | 1.74 | CN1CCN(c2ccc(S(=O)(=O)Nc3ccccc3)cc2[N+](=O)[O-])CC1
0.86 | 0.16 | C[N+]1(C)CC2=Cc3ccccc3CC2C1 (stereo not given)
0.64 | 0.65 | CCN(CC)C(=O)C(C)N(C#N)c1nc(SC)nc(N(C)C)n1 (stereo not given)
0.99 | -1.33 | Cc1ccc(-c2nc(C#N)c(NCC3CCCO3)o2)cc1 (stereo not given)
0.59 | 1.26 | COc1cc(NC(=O)CN(C)Cc2ccc(OC(F)F)cc2)c(C)cc1[N+](=O)[O-]
0.96 | -0.85 | COC(=O)c1cc(CSC(=N)N)ccc1OCCC(C)C
1.31 | -0.01 | COc1ccc2c(c1)c(C(=O)CN1CCOCC1)c(C)n2C
0.08 | -1.82 | COc1cccc(CC(NC(C)=O)C(=O)NC2CCN(c3nc(C)cc(C)c3C#N)CC2)c1 (stereo not given)
1.61 | -1.91 | Cc1cc(=O)oc(C)c1C(=O)OCC(=O)c1ccc2ccccc2c1
0.72 | -0.84 | CCN(CC)CCNc1nc2nonc2nc1NCCN(CC)CC
1.15 | 0.02 | O=C(Nc1ccc2c(c1)OCO2)c1ccc(Br)o1
0.05 | 0.78 | Cc1ccc(Cn2nnc(C(=O)Nc3cc(C)ccc3C)c2N)cc1
0.51 | 1.12 | CC(C)NC(=O)c1ccc(-c2cc(C(F)(F)F)ccc2Cl)o1
1.07 | -0.08 | CC(Cl)c1cc(-c2ncc(C(F)(F)F)cc2Cl)no1 (stereo not given)
0.02 | -0.31 | c1ccc2[nH]c(CCCc3nc4ccccc4[nH]3)nc2c1
2.39 | 0.57 | Nc1nc(Nc2ccccc2)nc(NC2CCCCC2)c1[N+](=O)[O-]
0.39 | -0.33 | COc1ccc(N2CCN(C(=O)CN3C(=O)NC4(CCCc5ccccc54)C3=O)CC2)cc1 (stereo not given)
1.59 | -0.35 | C=CCn1c(N)cc(=O)nc1SCC(=O)NC(C)c1ccccc1 (stereo not given)
0.14 | -1.19 | NC(=O)c1ccc(NC(=O)CN2CCN(c3ccc(Cl)cc3)CC2)cc1
0.2 | -0.31 | COc1cccc(CNS(=O)(=O)c2cc3c4c(c2)CCC(=O)N4CCC3)c1
2.2 | -0.32 | N#C/C(=C(/O)COC(=O)c1ccc(O)cc1)c1nc2ccccc2[nH]1
0.01 | -0.65 | O=C1CC(NNc2nc3ccccc3s2)C(=O)N1c1ccc(F)cc1 (stereo not given)
0.16 | 1.48 | COC(=O)c1ccc(Oc2nc(Nc3ccccc3)nc(N(C)C)n2)cc1
1 | -0.16 | CCN(CC)S(=O)(=O)c1ccc(C(=O)Nc2c3c(nn2C(C)(C)C)CS(=O)(=O)C3)cc1
0.66 | -0.21 | Cc1nnc2n(c1=O)C(CS(=O)(=O)c1ccccc1)CS2 (stereo not given)
0.08 | 0.03 | CC(=O)NCC(=O)N1CCC(n2nccc2NC(=O)CCCc2ccccc2)CC1
1.27 | 1.43 | Cc1ccc(S(=O)(=O)NCCNC(=O)c2nonc2N)cc1
0.18 | -0.09 | Cc1cc(C)n2nc(CC(=O)NNC(=O)c3ccccc3Cl)nc2n1
1.57 | 0.02 | COc1ccc(/C(C)=N/NC(=O)Cc2ccc(Cl)cc2)cc1
1.86 | -0.15 | Cc1ccc(CC(=O)Nc2ccc(F)c([N+](=O)[O-])c2)cc1
0.96 | 0.67 | COC(=O)c1ccc(-c2noc(CN(Cc3nccn3C)C(C)C)n2)cc1
0.05 | 0.15 | CCCOc1ccc(CSc2nnc(CCC)n2N)cc1
0.39 | 1.15 | Cc1c(Cl)cccc1Nc1ncccc1C(=O)O
1.2 | 2.18 | Cc1cc(C)nc(NS(=O)(=O)c2ccc(NC(=S)NC(=O)C3CCCC3)cc2)n1
0.84 | -0.41 | CCOC(=O)CNC(=O)CSc1nnc(C)c(=O)[nH]1
0.29 | 1.69 | O=C(COc1ccc(Br)cc1)Nc1nnc(-c2cccnc2)s1
0.77 | -0.02 | C=CCn1c(CSc2nc3ccccc3s2)nnc1SCC(=O)OCC
0.45 | -1.33 | CCn1c(CNc2ccc(Cl)cc2)nnc1SCc1ccc(Cl)cc1
2.56 | 0.85 | S=c1[nH]c(-c2ccccc2)cn1/N=C/c1cccs1

The results go on.
KCNQ2 pot | KCNQ2 pot baseline | Compound
0.23 | 0.24 | CS(=O)(=O)c1ccc2nc(NC(=O)Nc3ccc(Cl)cc3)sc2c1
0.02 | -0.57 | CCOC(=O)c1c(C)[nH]c(C(=O)COC(=O)COc2ccccc2C=O)c1C
1.17 | 0.32 | COC(C[C@H]1O[C@@H]1[C@@H](O)COCc1ccccc1)OC
1.44 | -0.27 | O=C(Nc1c(C(=O)N2CCOCC2)cnn1-c1ccccc1Cl)c1ccco1
0.57 | -0.95 | CC1(c2ccc(Cl)cc2)NC(=O)N(CC(=O)Nc2ccc(F)cc2)C1=O (stereo not given)
1.17 | -0.66 | CCCc1cc(=O)oc2cc(OCC(=O)NCc3cccs3)ccc12
0.05 | 0.37 | CCN1CCN(CC(=O)c2ccc(C)cc2)CC1
1.06 | 1.29 | COC(=O)c1ccccc1N(C)C(=O)C12CCC(C)(C(=O)O1)C2(C)C (stereo not given)
2.65 | -1.46 | C/C(=N\NC(=O)c1ccco1)c1cc2ccccc2o1
0.01 | 0.9 | CC1CC(C)CN(S(=O)(=O)c2ccc(NC(=S)NC(=O)c3ccccc3)cc2)C1 (stereo not given)
0.42 | 0.05 | O=C(C[n+]1ccn(-c2ccccc2)c1)c1ccc([N+](=O)[O-])cc1
0.76 | -0.08 | Cc1ccc(NC(=O)CSc2nnc(CNC(=O)c3ccco3)o2)cc1
1.02 | 0.26 | COc1ccc(CNC(=O)C2CCN(S(=O)(=O)c3c(C)n[nH]c3C)CC2)cc1
0.42 | 0.42 | COCCNC(=O)/C(C#N)=C/c1c(N2CCCCCC2)nc2c(C)cccn2c1=O
1.24 | -0.08 | CC1CCc2c(sc(NC(=O)CSc3ncnc4c3cnn4-c3ccccc3Cl)c2C#N)C1 (stereo not given)
1.44 | 3.08 | CCCCN(CC(=O)NCc1ccc(Cl)cc1)S(=O)(=O)c1ccc2c(c1)OCCO2

Screens from PubChem BioAssay.

The list is partial. The share of hits here may be higher or lower than overall.
